Assay outcomes deposited in PubChem by National Center for Advancing Translational Sciences (NCATS).
Rango release inh: qHTS Assay for Inhibitors of RanGTP induced Rango (Ran-regulated importin-beta cargo) - Importin beta complex dissociation. Snurportin-1 (Homo sapiens) + GTP-binding nuclear protein Ran (Homo sapiens) + Importin …. Biochemical FRET Rango-importin beta, RanGTP-induced dissociation. Potency, µM (titrated, usually from 46.1 µM), for the others: at the top dose activity change, negative = inhibition. 0.071% of 340,000 active; active means falling FRET ratio curve, often poorly fitted, with flat reads before Ran was added; inconclusive means other falling curves, or compound fluorescence or quenching; inactive means flat or rising ratio curve;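 note: potency is the fitted concentration of half-maximal effect; % of control where 0% means no effect; nearly all actives have a fitted effect of over 45% in size; -100% = wells without RanGTP and RCC1; the record marks most hits as doubtful in a second field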
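Rango (0.1 uM)–importin beta (0.25 uM) complex; RanGTP-RCC1 trigger; 45 min RT; CFP/YFP FRET read.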
GLA inh pH 4.5: qHTS Assay for Inhibitors of Human alpha-Galactosidase at pH 4.5. 230,000 tested, under 10 active. purified enzyme, 4-MU-alpha-Gal fluorescence, pH 4.5. AID 1467, 2008. activity change, negative = inhibition, % at 105 µM; inconclusive = small, poorly fitted or top-dose-only inhibition, or a rising curve; inactive = flat fitted curve, though single readings scatter; no compound was filed as active;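 note: 0% = full activity with enzyme and -100% = basal without enzyme; dose as in the result columns while the protocol names 77 µM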
Target sequence (P06280 whole entry, looked up): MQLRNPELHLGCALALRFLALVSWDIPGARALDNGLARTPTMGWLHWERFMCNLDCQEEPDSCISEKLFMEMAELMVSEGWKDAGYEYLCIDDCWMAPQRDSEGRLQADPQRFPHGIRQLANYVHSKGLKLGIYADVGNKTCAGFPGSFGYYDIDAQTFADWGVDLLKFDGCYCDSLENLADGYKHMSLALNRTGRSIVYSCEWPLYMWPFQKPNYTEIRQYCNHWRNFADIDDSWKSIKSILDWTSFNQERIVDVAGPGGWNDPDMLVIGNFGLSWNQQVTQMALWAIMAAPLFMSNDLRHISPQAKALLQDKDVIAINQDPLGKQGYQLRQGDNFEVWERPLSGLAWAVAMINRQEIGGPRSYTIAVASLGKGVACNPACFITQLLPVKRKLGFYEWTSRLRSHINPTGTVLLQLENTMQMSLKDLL
miR-21 FLuc: qHTS Assay for Modulators of miRNAs and/orActivators of miR-21; AID 2288, 2010; 340,000 tested, under 10 active; Potency, µM (titrated, usually from 38.3 µM), for inactives: at the highest dose reporter change, positive = more light; HeLa miR-21 FLuc reporter, luciferase, 48 h; active = well fitted rising curve with a large enough effect; inconclusive = small, poorly fitted or top-dose-only effect; inactive = no such curve, though single readings can be large or run the other way;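 note: % of control where 0% means no effect; miR-21 action dims this reporter so a rising signal means less miR-21 action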
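HeLa cells stably expressing CMV-driven firefly luciferase with a downstream miR-21 binding sequence, endogenously expressing miR-21, were treated with titrations (up to about 40uM final) for 48 hours at 37 degree Celsius. Luciferase luminescence was read after lysis.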
Rango-impB inh: qHTS Assay for Inhibitors of Rango (Ran-regulated importin-beta cargo) - Importin beta complex formation; Rango CFP/YFP FRET sensor + importin beta, 45 min; Potency, µM (highest dose often 92.2 µM), without a hit: at the highest dose inhibition of complex formation; 0.031% of 340,000 active; Importin subunit beta-1 (Homo sapiens), Q14974; active = rising FRET ratio curve, often small or poorly fitted; inconclusive = mostly compound fluorescence or quenching in the first reads; inactive = flat curves in all reads;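 note: potency is the fitted concentration of half-maximal effect; 0% = DMSO wells and 100% = buffer wells lacking importin beta; nearly all actives have a fitted effect of over 15% in size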
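FRET biosensor (snurportin 1 IBB flanked by EYFP and cerulean), 50 nM, with compound 5 min, then 0.125 microM importin beta in PBS, 1 mM DTT, 0.02% Tween-20, 0.1% BSA. CFP/YFP ratio read after 45 min at room temperature; pre-read flags interference.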
Active calls of the source: *; ? = inconclusive; . = no result given; & = joins results of further samples; [ ] = remark or other dose. These rows are one share of the data, so the mix of outcomes need not match the whole.

miR-21 FLuc | GLA inh pH 4.5 | Rango-impB inh | Rango release inh | Molecule
. | . | -0.8% | 2.2% | C[C@H](NC(=O)OCc1ccccc1)C(=O)N[C@@H](Cc1c[nH]c2ccccc12)C(=O)O
. | . | 0.8% | 9.6% | CCCNC(=O)C(CC)NC(=O)c1ccc(C#N)cc1 (stereo unspecified)
-5.9% | -11.2 | 0.9% | 4.2% | CCc1ccc(C(C(=O)NC2CCCC2)N(C(=O)/C=C/C(=O)Nc2cc(C)on2)c2ccccc2C)cc1 (stereo unspecified)
5.2% | 2.8 | ? | ? | CCOC(=O)C1=C(C)OC(N)=C(C#N)C1c1ccc(O)c(OC)c1 (stereo unspecified)
-3.6% | . | -2.5% | -3.6% | O=C(NCC1COCCO1)c1ccc(OC2CCN(CCc3ccccc3)CC2)cc1 (stereo unspecified)
-4.8% | 2.4 | 1.0% | ? | N#Cc1ccsc1NC(=O)CN1CCN(c2ccccn2)CC1
-7.1% | -1.7 | ? | ? | CCOC(=O)C1CCN(C(=O)Cc2c(C(=O)O)n(CC)c3ccccc23)CC1
-2.0% | 13.8 | -2.6% | -0.6% | COc1ccc2[nH]c(=O)c(CN(C(=O)c3cccnc3)c3ccccc3OC)cc2c1
22.5% | 2.8 | 4.3% | 4.8% | NS(=O)(=O)c1ccc(CCNC(=O)CN2CCN(c3cccc(Cl)c3)CC2)cc1
-37.2% | -9.9 | 2.6% | -1.0% | CNc1oc(-c2ccccc2)nc1C#N
-8.9% | -11.6 | ? | ? | Cc1ccsc1C(=O)N1CCCC(CCC(=O)NCc2ccccc2F)C1 (stereo unspecified)
4.3% | 2.7 | -1.9% | 0.5% | CC(=O)Nc1ccc(S(=O)(=O)N2CCCN(S(=O)(=O)c3ccc(C)cc3)CC2)cc1
-3.8% | . | 3.6% | 20.7% | O=C(Cn1cnc2ccccc2c1=O)NCCC(=O)Nc1ccccc1C(F)(F)F
-78.6% | 7.3 | ? | -1.1% | Cc1cccn2cc(-c3c[nH]c4ccccc34)nc12
7.5% | 1.8 | -0.1% | ? | CCOC(=O)Cc1c(C)nc(Cc2ccc(OC(C)C)cc2)[nH]c1=O
-5.2% | 0.0 | -2.9% | 12.8% | CCc1cc(=O)oc2cc(C)cc(OC(C)C(=O)O)c12 (stereo unspecified)
-2.5% | -12.3 | -1.1% | -15.1% | Cc1cccc(C)c1Nc1nnc(SCC(=O)NCc2cccs2)s1
-0.5% | . | 0.1% | 0.2% | COc1cc(C(=O)NCc2ccc3c(c2)OCO3)c([N+](=O)[O-])cc1OC
-24.1% | 2.9 | -1.7% | -5.6% | O=C(Nc1ccccc1F)c1ccco1
-68.6% | 2.9 | 0.2% | 0.3% | Cc1ccc(-c2nc3ccccc3s2)cc1NC(=S)NC(=O)c1cccc2ccccc12

miR-21 FLuc | GLA inh pH 4.5 | Rango-impB inh | Rango release inh | Molecule
-23.4% | -4.5 | 2.1% | 4.6% | CCOc1ccc(NC(=S)N(CCCN2CCOCC2)Cc2cn(C)c3ccccc23)cc1
. | -16.7&3.5&-2.0 | 3.5% | 19.3% | CN(C)CCOC(=O)COc1ccc(Cl)cc1
-5.7% | -4.4 | 1.1% | 0.1% | CCCn1nc(C(=O)OCC(=O)Nc2ncc(Cl)c(C)c2Cl)c2ccccc2c1=O
. | . | -0.5% | 0.5% | O=C(Cc1c(F)cccc1Cl)NC1CCN(Cc2ccccc2)CC1
-1.1% | 13.3 | 0.1% | -9.3% | CC(C)Cc1nnc(NC(=O)c2cc(-c3ccccc3)nc3ccccc23)s1
0.6% | . | 1.8% | 10.7% | Cc1nn(CCCC(=O)NCc2ccco2)c(=O)c2nn(-c3ccccc3)c(C)c12
-5.1% | 0.0 | 0.9% | 1.3% | COc1ccc(NC(NC(=O)c2cccnc2)C(Cl)(Cl)Cl)cc1 (stereo unspecified)
-4.3% | -0.8 | 3.6% | -0.8% | COc1cnc(N(C)C)nc1Sc1ccc(Cl)cc1
1.1% | -2.2 | -0.5% | -0.6% | Cc1ccc2c(c1)N(C(=O)CSc1nncn1C)C(C)(C)c1ssc(=S)c1-2
-3.4% | -2.5 | ? | -10.4% | Cc1c(C#N)c2ccccc2n1CC(=O)NCC1CCCO1 (stereo unspecified)
-2.0% | -12.3 | -0.2% | -7.2% | O=C(COC(=O)COc1ccc2ccccc2c1)NCC(F)(F)F
1.4% | . | -0.1% | -0.8% | O=C(NC(=S)Nc1ccccc1Cl)c1cncc(Br)c1
. | . | -0.3% | 21.4% | COc1ccccc1NS(=O)(=O)c1ccc(C(=O)NCC(c2ccco2)N2CCCCC2)cc1 (stereo unspecified)
. | . | 0.0% | -1.6% | CC(=O)Nc1ccc2c(COC(=O)[C@@H](NS(=O)(=O)c3ccc(C)cc3)C(C)C)cc(=O)oc2c1
-2.8% | -1.0 | 0.4% | 5.5% | CC(=O)NCCc1ccc(S(=O)(=O)NC2OC(=O)c3ccccc32)cc1 (stereo unspecified)
2.1% | . | -1.7% | 9.9% | Cn1c(CNC(=O)c2ccco2)nnc1SCC(=O)c1ccc(F)cc1
2.3% | -2.2 | -0.4% | -7.0% | O=C(NCC12CC3CC(C1)CC(CNC(=O)N1CCCC1)(C3)C2)N1CCCC1
-1.1% | -5.9 | . | . | CCN1CCN(C2CCN(C(C)=O)CC2)CC1
-4.1% | 0.5 | -0.7% | -4.2% | C/C(=N\NC(N)=O)C1(C)CCCCC1
-1.9% | . | -0.6% | 9.6% | COC(=O)Cn1c(CN2CCOCC2)nc2c1c(=O)n(C)c(=O)n2C

miR-21 FLuc | GLA inh pH 4.5 | Rango-impB inh | Rango release inh | Molecule
. | . | 1.1% | -4.7% | CC1(C2CC2)NC(=O)N(CC(=O)Nc2ccc(SC(F)F)cc2)C1=O (stereo unspecified)
-3.4% | -9.1 | -3.2% | 5.6% | Cc1ccc(C(=O)O)cc1S(=O)(=O)N1CCC(C(=O)O)CC1
0.9% | -1.8 | -2.4% | ? | CCN1CCN(C(=O)CCN2C(=O)c3ccccc3C2=O)CC1
0.9% | -2.4 | -2.1% | 3.3% | O=C(NNC(=O)C(O)(c1ccccc1)c1ccccc1)C1CC1
-10.0% | -0.3 | 3.3% | 22.2% | CCNc1nc(NC(C)C)nc(N(C)C#N)n1
. | . | -4.0% | 1.0% | COCCN(C(=O)CSCC(=O)Nc1ccc(C)cc1)c1c(N)n(CC(C)C)c(=O)[nH]c1=O
-9.8% | 3.1 | 5.7% | 2.5% | COC(=O)c1ccccc1NC(=O)C1CC(=O)N(c2ccc(F)cc2)C1 (stereo unspecified)
? | -4.6 | -1.7% | -0.4% | O=S(=O)(CCSc1nc2ccccc2o1)c1nc2ccccc2s1
-17.8% | -9.6 | . | . | O=C1C(=O)N(CCCN2CCOCC2)C(c2cccs2)/C1=C(/O)c1ccc2c(c1)OCO2 (stereo unspecified)
-6.1% | 6.0 | 0.5% | 2.2% | Cc1c(NCc2cc(Cl)ccc2O)c(=O)n(-c2ccccc2)n1C
-14.6% | 0.8 | -2.9% | 5.5% | CCOc1ccc(-c2nc(C#N)c(NCC3CCCO3)o2)cc1 (stereo unspecified)
-1.0% | 11.4 | 3.2% | 1.8% | Cc1nn(C)cc1C(C)NCc1c(C(=O)N2CCCCCCC2)nc2ccc(Cl)cn12 (stereo unspecified)
-2.8% | 1.1 | -1.4% | 1.4% | COc1ccccc1-c1nc(C#N)c(N2CCC(C(N)=O)CC2)o1
1.0% | . | -1.2% | 12.9% | Cc1cccc(C)c1NC(=O)C(C)Sc1nnc(C)n1CC1CCCO1 (stereo unspecified)
1.5% | -5.3 | 5.3% | -13.3% | COC(=O)C(NS(=O)(=O)c1ccccc1Cl)c1ccccc1 (stereo unspecified)
-6.6% | . | -1.1% | 1.0% | CC(=O)Nc1ccc(NC(=O)C2CC(=O)N(c3ccc(Cl)cc3)C2)cc1 (stereo unspecified)
. | . | -0.2% | -5.3% | CC[C@@]1(C(=O)OC)N[C@H](CN(C)S(=O)(=O)c2ccc(-c3ccccc3)cc2)[C@@H]2C(=O)N(C)C(=O)[C@@H]21
? | ? | 0.6% | 2.1% | COc1ccccc1-c1cc(C(F)(F)F)nc(S(=O)(=O)CCCC(=O)NCc2ccc(F)cc2)n1
23.1% | 4.8 | 0.5% | -0.2% | C(#Cc1ccccc1)C[N+]1(CC#Cc2cccc3ccccc23)CCOCC1
4.9% | 2.7 | -3.2% | -16.6% | O=C(O)c1ccc2c(c1)OCCCO2

miR-21 FLuc | GLA inh pH 4.5 | Rango-impB inh | Rango release inh | Molecule
-3.4% | . | 3.4% | -0.2% | Cc1ccc(NC(=O)c2sc3ncn(CC(=O)N4CCN(c5ccccn5)CC4)c(=O)c3c2C)cc1F
3.9% | . | 0.3% | 19.9% | CN(C(=O)CCc1nnc(-c2ccc(-c3ccccc3)cc2)o1)C1CCOCC1
-1.7% | -0.7 | 0.0% | -10.6% | c1ccc2c(c1)[nH]c1c(N3CCSCC3)ncnc12
-0.9% | -9.6 | -1.1% | -6.0% | O=C(O)CN(c1ccccc1F)S(=O)(=O)c1ccccc1
-1.1% | -5.6 | -2.7% | 5.7% | Cc1cc(C(F)(F)F)nn2cnnc12
-4.5% | -0.1 | 0.1% | -4.4% | Nc1nc(SCC(=O)Nc2cccnc2Cl)n[nH]1
. | . | -3.1% | -8.3% | COc1ccc2oc(C(=O)OCC(=O)N(C)CC(=O)Nc3ccc(F)cc3)c(C)c2c1
-4.3% | -12.6 | 2.3% | 0.0% | O=C(c1ccccc1)C1CN(Cc2ccccc2)CCC1(O)c1ccccc1 (stereo unspecified)
-2.7% | -0.1 | -7.9% | -3.9% | Cc1cccc(C)c1Oc1nc(-c2ccccc2)ncc1S(=O)(=O)c1ccccc1
-0.9% | 0.9 | -5.8% | -10.7% | CCCCCC(=O)NC(=S)Nc1ccc(N2CCCCC2)c(Cl)c1
1.8% | -7.1 | -4.4% | -3.4% | COc1ccccc1/C=N/NC(=O)CNC(=O)c1ccc(S(=O)(=O)N2CCCC2)cc1
-55.0% | . | -0.7% | -2.2% | O=C(/C=C/c1ccc(OCCCF)cc1)N1CCOCC1
3.9% | 0.5 | -4.5% | 10.3% | CCOC(=O)Cc1csc(NC(=O)COc2ccc(OC)cc2)n1
-16.8% | 2.0 | 1.5% | -12.1% | CCc1ccc(NC(=O)C/C(C)=N/NC(=O)OCc2ccc(OC)cc2)cc1
2.6% | . | 4.3% | -7.8% | CCN(CC)CCn1c(=S)[nH]c2cc(C(=O)NCc3ccc(C)cc3)ccc2c1=O
-38.4% | -7.3 | 0.5% | -5.8% | COc1ccc(NC(=O)c2ccco2)cc1N
-13.7% | 1.5 | 0.5% | 7.3% | Cc1ccc(NCC(=O)N=Nc2c(O)n(C)c3ccccc23)cc1
-16.8% | -5.5 | ? | -7.9% | Brc1ccc(-c2nnc3c4ccccc4nc(N4CCOCC4)n23)cc1
1.4% | 6.6 | -1.6% | 13.4% | COc1cccc(NC(=O)C2CCN(S(=O)(=O)c3ccc4c(c3)OCCO4)CC2)c1
1.4% | -2.5 | 2.6% | 14.0% | Cc1ccc(N(C(=O)c2ccc3c(c2)OCO3)C2C=CS(=O)(=O)C2)cc1 (stereo unspecified)
-2.1% | 0.8[21.1 µM] | 0.0% | 7.7% | O=C(NC1(C(F)(F)F)NC(=O)N(C2CCCCC2)C1=O)c1ccco1 (stereo unspecified)
-10.4% | -0.3 | 3.8% | 0.0% | CCCS(=O)(=O)N1CCCC(C(=O)NCCc2ccc(OC)c(OC)c2)C1 (stereo unspecified)

Retrieved by structure from above, 3 records:
miR-21 FLuc | GLA inh pH 4.5 | Rango-impB inh | Rango release inh | Molecule
1.4% | 6.6 | -1.6% | 13.4% | COc1cccc(NC(=O)C2CCN(S(=O)(=O)c3ccc4c(c3)OCCO4)CC2)c1
-0.9% | 0.9 | -5.8% | -10.7% | CCCCCC(=O)NC(=S)Nc1ccc(N2CCCCC2)c(Cl)c1
1.8% | -7.1 | -4.4% | -3.4% | COc1ccccc1/C=N/NC(=O)CNC(=O)c1ccc(S(=O)(=O)N2CCCC2)cc1
